Screens (PubChem)
MARV entry inh: Marburg virus entry inhibition; hit rate 1.8% among 300,000; Marburg virus pseudotyped entry inhibition, cell reporter; control for the full effect not named in the record; about a third of the inactives were read at about 46 µM; Potency, µM (top dose mostly 37.8 µM), for the others: at the highest dose activity change, negative = inhibition, hits mostly inhibitors; active = well fitted inhibition curve with a large enough effect; inconclusive = small, poorly fitted or top-dose-only effect, or effect the other way; inactive = flat fitted curve, though single readings scatter; tested in HEK293 cells; about a fifth of its hits are not listed in these tables; note: % is set by controls: 0 for no effect and ±100 for the full control effect; luciferase read-out
LASV entry inh: inhibitors of Lassa virus binding or cell entry; hit rate 1.2% among 300,000; AID 540256; Lassa virus pseudotype entry inhibition, cell reporter; control for the full effect not named in the record; Potency, µM (titrated, usually from 37.9 µM), without a hit: top-dose activity change, negative = inhibition, most hits filed as inhibitors; active means well fitted inhibition curve with a large enough effect; inconclusive means small, poorly fitted or top-dose-only effect, or effect the other way; inactive means flat fitted curve, though single readings scatter; tested in HEK293 cells; note: % is set by controls: 0 for no effect and ±100 for the full control effect; nearly all actives have a fitted effect of over 50% in size; luciferase read-out
SARS PLpro yeast: SARS-CoV PLP inhibition in yeast. S. cerevisiae expressing SARS-CoV PLpro, growth rescue; control for the full effect not named in the record. Potency, µM (highest dose often 32.9 µM), inactives show at the top dose activity, positive = growth rescue. hit rate 0.19% among 330,000. AID 485353; note: 0% is about no effect; nearly all actives have a fitted effect of over 55% in size; growth read by luminescence after 48 h
2A StopGo: FMDV 2A StopGo reporter, luciferase signal | human cells with a luciferase reporter of 2A StopGo recoding; control for the full effect not named in the record | Potency, µM (top dose mostly 57.9 µM), for inactives: at the top dose signal change, negative = less light | hit rate 1.2% among 410,000; active = well fitted falling curve with a large enough effect; inconclusive = small, poorly fitted or top-dose-only effect; inactive = no such curve, though single readings can be large or run the other way; tested in HEK293T cells; note: % is set by controls: 0 for no effect and ±100 for the full control effect; nearly all actives have a fitted effect of over 45% in size; luciferase light after 4 h
RE007 growth inh: less growth of the S. pombe RE007 Vpr strain. S. pombe RE007 Vpr strain, BacTiter-Glo ATP luminescence, 24 h; control for the full effect not named in the record. Potency, µM (titrated, usually from 92.2 µM), inactives show at the top dose activity change, negative = less growth. hit rate 0.21% among 360,000. AID 651644; active = well fitted falling curve with a large enough effect; inconclusive = small, poorly fitted or top-dose-only effect; inactive = no such curve, though single readings can be large or run the other way;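 note: % is set by controls: 0 for no effect and ±100 for the full control effect; nearly all actives have a fitted effect of over 50% in size; the assay follows cell death caused by Vpr and the record does not say whether a fall means rescue or toxicity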
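Fission yeast strain RE007, carrying one chromosomally integrated HIV-1 vpr copy, was seeded at OD 0.01 in PMG+AL medium with 23 nL pinned compound. After 24 h at 30 °C and 99% humidity, viability was read by BacTiter-Glo luminescence.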
NS1 inh: blocks influenza NS1 protein function. hit rate 0.4% among 270,000. S. cerevisiae slowed by influenza A NS1, growth recovery by OD600. Potency, µM (titrated, usually from 46.1 µM), inactives show at the top dose activity, positive = more growth; note: actives are rising curves; nearly all actives have a fitted effect of over 50% in size
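OD600 was taken as the measure of yeast growth restored by compound in an NS1-expressing S. cerevisiae strain. Cells had been washed out of glucose medium and diluted 1:100 into galactose -URA medium, pH 6.0.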
Cruzain inh noDet: blocks cruzain activity in detergent-free assay; Potency, µM, for inactives: max response, negative = inhibition, most hits filed as inhibitors; P25779; AID 1476; hit rate 2.3% among 200,000; purified cruzain, Z-FR-AMC fluorescence, no detergent; active = well fitted curve in the direction sought with a large enough effect; inconclusive = small, poorly fitted or top-dose-only effect, or another doubt; inactive = no such curve, though single readings can be large; an effect the other way counts as inactive or inconclusive;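 note: plate controls were enzyme without inhibitor for no effect and buffer without enzyme for full effect; nearly all actives have a fitted effect of over 40% in size; top concentration of the series not given in the record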
Target sequence (P25779 123-467 limits assumed): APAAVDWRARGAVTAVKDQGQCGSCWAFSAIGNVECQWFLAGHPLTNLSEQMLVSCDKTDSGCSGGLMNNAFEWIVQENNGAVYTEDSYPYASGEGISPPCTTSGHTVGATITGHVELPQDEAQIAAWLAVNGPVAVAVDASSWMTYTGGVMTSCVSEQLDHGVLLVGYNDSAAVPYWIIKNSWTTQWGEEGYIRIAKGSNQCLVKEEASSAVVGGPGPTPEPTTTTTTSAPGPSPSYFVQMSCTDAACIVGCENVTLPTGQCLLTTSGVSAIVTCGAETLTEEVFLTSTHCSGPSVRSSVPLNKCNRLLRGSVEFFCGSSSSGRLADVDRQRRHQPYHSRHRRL
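Purified cruzain at 1.5 nM, pre-incubated 15 min with compound at room temperature in 100 mM sodium acetate pH 5.5, 5 mM DTT, 0.00005% Triton X-100. Reaction started with 2 uM Z-FR-AMC; AMC fluorescence increase over 60 s gives rate.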
Cruzain inh Det: inhibitors of Trypanosoma cruzi cruzain with detergent; P25779; purified cruzain, Z-FR-AMC fluorescence, 0.01% Triton; Potency, µM, inactives show max response, negative = inhibition, hits mostly inhibitors; hit rate 0.43% among 200,000; active = well fitted curve in the direction sought with a large enough effect; inconclusive = small, poorly fitted or top-dose-only effect, or another doubt; inactive = no such curve, though single readings can be large; an effect the other way counts as inactive or inconclusive;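 note: plate controls were neutral wells for no effect and buffer without enzyme for full effect; nearly all actives have a fitted effect of over 40% in size; top concentration of the series not given in the record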
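Cysteine protease activity tested under reducing, mildly acidic conditions (100 mM sodium acetate pH 5.5, 5 mM DTT) plus 0.01% Triton X-100. Cruzain 1.5 nM; substrate Z-FR-AMC 2 uM; 15 min compound preincubation at room temperature.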
The depositor's hits bear a star; ? = inconclusive; · = no result given; & = joins results of further samples; [ ] = remark or other dose. Unless noted, calls come from the whole dose curve; as a rule, active means well fitted rising curve with a large enough effect; inconclusive means small, poorly fitted or top-dose-only effect; inactive means no such curve, though single readings can be large or run the other way. Potency is the fitted concentration of half-maximal effect.

SMILES	MARV entry inh	LASV entry inh	SARS PLpro yeast	2A StopGo	RE007 growth inh	NS1 inh	Cruzain inh noDet	Cruzain inh Det
CCOC(=O)C1CCN(C(=O)c2cc3c(=O)n4cccc(C)c4nc3s2)CC1	4%[46.1 µM]	4%[46.1 µM]	-1%	20%	-7%	8%	·	·
CCOc1ccccc1N1C(=O)c2ccc(S(=O)(=O)c3ccc(C(=O)O)cc3)cc2C1=O	-6%[46.1 µM]	21%[46.1 µM]	11%	2%	2%	8%	·	·
CC(C)(C)N(NC(=O)Nc1ccc(Cl)cc1)C(=O)c1ccccc1	?	-14%	1%	4%	-13%	-13%	1%	5.9%
CCc1ccc(N2CC(C(=O)OCC(=O)NC3CC3)CC2=O)cc1 (stereo not drawn)	-15%[46.1 µM]	-3%[46.1 µM]	-1%	-8%	-22%	·	·	·
COC(=O)N/N=C/c1ccc(-c2ccc(Cl)c(Cl)c2)o1	·	·	-83%	36%[activator]	?	-10%	-1%	-13%
Cc1ccc(C2C=C(c3ccc(F)cc3)Nc3nc(CCCO)nn32)cc1 (stereo not drawn)	-1%[46.1 µM]	-23%[46.1 µM]	·	-15%	·	·	-2%	-8.2%
Cc1cccc(NC(=O)c2ccc(F)c(S(=O)(=O)NCc3ccc4c(c3)OCO4)c2)c1	·	-11%[46.1 µM]	·	3%	·	·	-4%	-0.3%
Cc1ccccc1NC(=O)c1cccc(S(=O)(=O)N2CCOCC2)c1	14%[46.1 µM]	11%	-4%	5%	-4%	8%	·	·
Cc1cccc(N2CCN(C(=O)Cn3cnc4sc(C)c(S(=O)(=O)N5CCN(c6ncccn6)CC5)c4c3=O)CC2C)c1 (stereo not drawn)	?	?	·	-19%	·	·	?	-7.1%
CCC(=O)N1CCc2cc(S(=O)(=O)NCCCOC)ccc21	21%	17%	9%	39%[activator]	14%	-1%	-6%	2.5%
CCc1cc2c(=O)c(-c3nc4ccccc4n3C)coc2c(CN2CCC(C)CC2)c1O	8%[46.1 µM]	?	0%	-11%	-7%	-3%	·	·
CCCc1n[nH]c2c1/C(=N\OCC)CC(C)(C)C2	1%	0%	1%	-17%	10%	2%	·	·
CSCCC(NC(=O)c1cc([N+](=O)[O-])ccc1Cl)C(=O)O (stereo not drawn)	-3%	1%	10%	-11%	-3%	1%	-3%	2.0%
CS(=O)(=O)NNC(=O)C1Cc2c(ccc3ccccc23)O1 (stereo not drawn)	·	·	-1%	30%[activator]	17%	0%	·	·
CC(CN(C)Cc1ccccc1)OC(=O)c1cccc(F)c1 (stereo not drawn)	?	-6%	27%	-11%	3%	?	-17%	-0.9%
O=C(CSc1nc(C2CC2)nc2ccccc12)N1CCc2ccccc2C1	1%	·	-20%	·	·	4%	-27%	-28%
COc1ccc(CNc2ccc(S(N)(=O)=O)cc2)cc1	2%	29%	11%	-14%	2%	5%	-11%	-0.6%
CCc1nnc(NC(=O)C2CCN(S(=O)(=O)c3ccc(C)cc3)CC2)s1	-20%	-21%	0%	-10%	-11%	-4%	·	·
O=C(OC1CCOC1=O)c1ccc(N2CCCC2)c([N+](=O)[O-])c1 (stereo not drawn)	5%[46.1 µM]	-3%[46.1 µM]	-1%	11%	-12%	·	·	·
Cc1ccnc(NC(=O)CNC(=O)c2ccc(C)s2)c1	6%	?	2%	87%[activator]	-7%	·	·	·
CCCC(c1nnnn1CCC(C)C)N1CCC(C(N)=O)CC1 (stereo not drawn)	0%[46.1 µM]	5%	2%	23%	-6%	1.1µM*	-14%	0.6%
CCN(C(=O)CSc1nnc(Cc2cccc3ccccc23)n1N)C1CCS(=O)(=O)C1 (stereo not drawn)	18%	-2%	0%	12%	-19%	7%	-5%	1.8%
O=C(N/N=C/c1ccc2c(c1)OCO2)c1cccc(NC(=O)c2ccccc2Cl)c1	?	?	3%	14%	10%	7%	·	·
COc1ccc(C(CNC(=S)NCc2ccccc2)N2CCCC2)cc1 (stereo not drawn)	?	?	2%	41%[activator]	6%	·	·	·
O=C(Nc1ccccc1[N+](=O)[O-])c1cccnc1Cl	29%	-4%	-21%	-10%	-8%	9%	-9%	-1.2%
Cc1[nH]c2c(Cl)cccc2c1CCNC(=O)C1CCCCC1C(=O)OCC(F)(F)F (stereo not drawn)	?	?	-9%	?	7%	-20%	4%	-8.8%
O=C(CCCN1C(=O)c2ccccc2C1=O)NCCC1=CCCCC1	-4%	-4%	-3%	8%	11%	-21%	4%	6.4%
Cc1cccc(NC(=O)CCC(=O)N/N=C/c2cccnc2)c1	6%[46.1 µM]	24%[46.1 µM]	16%	0%	-7%	4%	·	·
Cc1ccc(S(=O)(=O)N2CCC(=O)N(C(COCc3ccc(Cl)c(Cl)c3)Cc3ccccc3)CC2)cc1 (stereo not drawn)	-19%	-4%	-4%	-21%	12%	19%	-2%	0.4%
Cc1cccnc1NC(=O)c1ccco1	?	1%	-1%	0%	-12%	·	·	·
NC(=O)CSc1oc(-c2ccco2)nc1S(=O)(=O)c1ccc(Br)cc1	-4%&-2%[46.1 µM]	-15%	23%	3%&0%	6%	2%	5%	-4.9%
CCOC(=O)Cc1nnc(-c2ccccc2)o1	·	·	-3%	0%	-3%	-2%	·	·
CNC(=O)c1c(NC(=O)c2nc(SCc3ccc(C)cc3)ncc2Cl)sc2c1CCCC2	?	-15%[46.1 µM]	·	24%	·	·	-2%	-0.5%
CCOC(=O)c1c(C)[nH]c(C)c1S(=O)(=O)N1CCCC(C(=O)NCc2cccc(C)c2)C1 (stereo not drawn)	·	11%[46.1 µM]	·	18%	·	·	15%	-0.7%
CN1CCN(CC#CC(C)(O)C2CC3C=CC2C3)CC1 (stereo not drawn)	9%	-10%	3%	0%	1%	-2%	3%	3.6%
CCOC(=O)c1nn(-c2ccccc2C)c2nc(Nc3ccccc3)cc(=O)n12	1%	?	7%	-20%	16%	-17%	?	0.0%
CCOC(=O)c1cccc(NC(=O)CSc2nnc(CNc3ccc(C)cc3)n2CC)c1	3%	5%	0%	21%	16%	-8%	?	-0.5%
CCc1nc(C#N)c(N2CCOCC2)o1	13%	2%	?	-18%	9%	-2%	3%	-0.8%
O=C(NCCCN1CCC(Cc2ccccc2)CC1)C1CCN(S(=O)(=O)N2CCOCC2)CC1	-24%	-5%	-2%	-7%	4%	2%	-1%	-2.9%
Cc1ccc(N(CC(=O)NC2CCCC2)C(=O)CCC(=O)Nc2nccs2)c(C)c1	?	-6%	1%	-2%	-12%	-3%	·	·
CCN1CCN(C(c2cccc(F)c2)c2c(O)cc(C)n(Cc3ccco3)c2=O)CC1 (stereo not drawn)	·	?	·	-23%	·	·	?	1.2%
CCOc1ccccc1NC1=CC(=O)CC(c2ccccc2)C1 (stereo not drawn)	?	?	0%	0%	19%	2%	3%	0.7%
COc1cc(C(=O)NCCC(=O)NCCCN2CCCCC2)cc(OC)c1OC	?	-14%[14.3 µM]	-6%	-3%	-3%	4%	-1%	1.8%
CCN(Cc1ccccc1)Cc1c(O)ccc2oc(C)c(C(=O)Nc3ccc(C)cc3C)c12	?	?	·	?	·	·	-8%	-4.6%
COc1ccc(NC(=O)N2CCc3ccccc32)cc1	?	?	-15%	-42%	?	-47%	6%	3.8%
COCc1nc2ccccc2n1CCOc1ccccc1OC	30%	-6%	4%	-13%	-5%	-16%	9%	3.2%
COc1ccc2c3c1OC1C(O)C=CC4C(C2)[N+](C)(C)CCC341 (stereo not drawn)	·	·	-1%	-10%	2%	2%	·	·
CN(c1ccccc1C(=O)O)S(=O)(=O)c1ccc2c3c(cccc13)C(=O)N2	-5%	1%	1%	-19%	12%	-22%	2%	-7.1%
CCCc1nn(C(=O)c2ccccc2)c2c1C(=O)CC(C)(C)C2	?	-6%	-3%	·	7%	-2%	-5%	0.6%
CCCCc1ncc(CN2CCN(Cc3ccc(C)cc3)C(CCO)C2)[nH]1 (stereo not drawn)	·	·	0%	-10%	-8%	3%	·	·
N#Cc1c(N)c(C(=O)c2ccccc2)n2ccccc12	14%[46.1 µM]	15%	·	-3%	18%	·	·	·
CN(C(=O)CSc1nnc(-c2n[nH]c3ccccc23)o1)c1ccccc1	11%[46.1 µM]	-25%	?	4%	3%	3%	1%	-4.7%
COCCOC(=O)C1=C(C)OC(N)=C(C(=O)OC)C12C(=O)Nc1ccccc12 (stereo not drawn)	17%	13%	-4%	8%	-13%	5%	14%	4.2%
CC(C)NS(=O)(=O)c1ccc(NC(=S)NC(=O)c2cccc([N+](=O)[O-])c2)cc1	0%	2%	7%	-2%	-6%	5%	0%	2.1%
COC(=O)C1CCN(C(c2ccccc2Cl)c2sc3nc(-c4ccco4)nn3c2O)CC1 (stereo not drawn)	·	5%[46.1 µM]	·	-6%	·	·	-8%	-2.2%
COc1ccc(-c2nc3ccccc3o2)cc1NC(=O)c1ccc(N2CCC(C)CC2)c([N+](=O)[O-])c1	?	25%[46.1 µM]	·	44%[activator]	·	·	-10%	0.6%
CC/C(=N\Nc1ccccc1)c1c(O)n(C)c(=O)n(C)c1=O	0%	-1%	-15%	?	226%	2%	2%	-4.9%
CCOc1ccc(NC(=O)C(Cc2ccccc2)NS(=O)(=O)c2ccc3c(c2)oc(=O)n3C)cc1 (stereo not drawn)	8%[46.1 µM]	2%[46.1 µM]	·	2%	·	·	-7%	2.0%
COc1cc(NS(=O)(=O)c2ccc3c(c2)CCCN3C(C)=O)cc(OC)c1OC	·	-4%[46.1 µM]	·	29%	·	·	-4%	0.8%
CCCn1cccc(C(=O)Nc2ccc(OC)cc2)c1=O	?	?	-2%	5%	-13%	-8%	·	·
O=C(Cc1ccc([N+](=O)[O-])cc1)Nc1ccc(Cl)cc1	?	3%	-2%	7%	-7%	20%	·	·
